# Screening data deposited in PubChem BioAssay by several laboratories.
# MT1-MMP act inh: blocks activation of human MT1-MMP; HT1080 RFP-PRO-GFP cells, GFP/RFP ratio fluorescence, overnight; percent of plate control window, DMSO zero; AID 651647; 0.061% of 360,000 active; GFP/RFP ratio change, % at 20 µM;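 active = GFP/RFP ratio change of at least 30% with cell ATP level not reduced by more than half and red fluorescence within 50% of control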; note: strong numbers were not always called active
#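 Assay system: RFP-PRO-GFP reporter HT1080 cells; read-out basis: GFP/RFP fluorescence ratio; benchmarks: DMSO wells and RFP-L50D-GFP cells; doses: 20 µM single dose, 1% DMSO; schedule: overnight cell settling, then overnight compound exposure, 37 °C, 5% CO2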
# eIF4H FP inh: inhibitors of RNA binding by human eIF4H. eIF4H fluorescence polarization binding assay. inhibition, % at 35 µM. 0.94% of 290,000 active. Q15056. AID 2012;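 active = 50% or more with normal probe brightness, or confirmed in later tests; about a fifth of its hits are not listed in these tables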;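 note: calls also rest on retests at 20 µM and on dose response follow-up; 0% = protein and probe with vehicle and 100% = probe without protein; strong numbers were not always called active; many hits fall short of the cut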
# UUG fidelity: alters start codon recognition fidelity in yeast; S. cerevisiae UUG-firefly luciferase reporter, luminescence/redox ratio; 0.13% of 350,000 active; activity score, % at 18.7 µM;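 active = replicate mean at a twofold rise or more, about +100% in these data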;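 note: firefly luciferase made from a UUG start codon reports start codon fidelity; reporter light over untreated wells divided by growth signal over untreated wells; some hits fall short of that in this replicate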
# HIV Env fusion: HIV envelope-mediated fusion inhibition; inhibition, % at 12.3 µM; AID 651610; 1.1% of 360,000 active; HeLa-JRFL Env/CEM21 cell fusion, luciferase;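 active = mean replicate inhibition score of at least 50 and every replicate individually at or above 50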;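 note: 0% = plate neutral controls and 100% = maraviroc near 300 nM; one replicate is shown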
# CSC inhib: cancer stem cell inhibition | cancer stem cell-like cells viability, luminescence | inhibition, % at 7.5 µM | 1.1% of 300,000 active;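 active = mean at 75% or more and at least half the replicates too; tested in HMLE shEcad cells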;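 note: 0% = median of negative and 100% = median of positive control wells; the first replicate is given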
# Rce1 inhib: yeast Ras-converting enzyme inhibition; 0.27% of 290,000 active; Q03530; yeast membranes, quenched prenylated peptide cleavage fluorescence; calls only;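 active = fall in fluorescence gain of 50% or more versus controls, with final raw signal at or below 3038400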;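 note: plate controls were neutral control wells for no effect and wells lacking membranes for full effect; tested at 10 µM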
# Target sequence (Q03530 whole entry, looked up): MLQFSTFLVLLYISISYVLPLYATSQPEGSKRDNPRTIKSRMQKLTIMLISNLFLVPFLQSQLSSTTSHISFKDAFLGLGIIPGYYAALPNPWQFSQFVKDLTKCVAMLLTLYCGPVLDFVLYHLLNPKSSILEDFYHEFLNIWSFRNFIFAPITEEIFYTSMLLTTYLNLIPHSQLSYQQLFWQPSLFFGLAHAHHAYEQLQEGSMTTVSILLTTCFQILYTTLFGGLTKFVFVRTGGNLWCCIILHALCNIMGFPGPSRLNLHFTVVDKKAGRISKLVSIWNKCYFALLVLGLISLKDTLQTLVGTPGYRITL
# PABP FP inh: blocks human PABP binding to poly(A) RNA. P11940. fluorescence polarization. inhibition, % at 35 µM. 1% of 290,000 active. AID 2014;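 active = 50% or more with normal probe brightness, or confirmed in later tests; about a fifth of its hits are not listed in these tables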;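 note: calls also rest on retests at 20 µM and on dose response follow-up; controls were probe without protein and protein plus probe with vehicle; some compounds called inactive have numbers as strong as hits; many hits fall short of the cut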
# eIF4H FP inh retest: recorded beside eIF4H FP inh, whose call it bears; inhibition, %; compound at 20 µM; confirmation average;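 mean of two retest wells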
# PABP FP inh retest: also measured in PABP FP inh; calls as there; inhibition, %; compound at 20 µM; confirmation repeats;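 mean of two retest wells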
# MT1-MMP act inh RFP: recorded beside MT1-MMP act inh, whose call it bears; RFP signal change, %; measured here: RFP expression control read;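 0 = vehicle wells; hits needed this value within 50% of zero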
# Starred values were filed as active, the others as inactive; i = inactive; nt = not tested or not shown.
SMILES,MT1-MMP act inh,MT1-MMP act inh RFP,eIF4H FP inh,UUG fidelity,HIV Env fusion,CSC inhib,Rce1 inhib,PABP FP inh,others
Cn1cc(C(=O)c2cccc(Cl)c2Cl)cc1C#N,1,-2,0,nt,3,6,i,-3,
Cc1ccc(OCC(=O)OCC(=O)NC2CCCC2)cc1C,-1,6,nt,-18,nt,4,nt,nt,
Cc1cc(NS(=O)(=O)c2ccc(NC(=O)c3ccccc3F)cc2)no1,3,0,nt,-14,nt,-9,nt,nt,
CCCN(CC(=O)Nc1cc(Cl)ccc1Cl)C(=O)c1ccccn1,0,-1,nt,5,-12,-17,nt,nt,
CCOC(=O)c1ccc(NC(=O)Cn2ncc(Cl)c(Cl)c2=O)cc1,-6,-33,28,nt,-196,90*,i,4,
CCOC(=O)Cc1cc(=O)c2c(=O)n(-c3ccccc3)[nH]c2[nH]1,3,1,6.0*,-18,-20,-20,i,54*,eIF4H FP inh retest=88*;PABP FP inh retest=73*
Cc1ccc(S(=O)(=O)N2CCCC2C(=O)NCc2ccncc2)cc1 (configuration not stated),2,2,-11,-9,1,-4,i,-4,
CC(C)C(=O)Nc1c(-c2ccc(Cl)cc2)c(=O)c2ccccc2n1C,2,0,-4,-11,-4,-17,i,-6,
COc1ccc(C(CNC(=O)c2ccco2)N2CCCCC2)cc1 (configuration not stated),1,5,-3,nt,10,-1,i,17,
O=C(NC(c1ccccc1)C(Cl)(Cl)Cl)c1ccccc1 (configuration not stated),1,-7,-5,-3,nt,3,i,-2,

# Of the compounds above, two have sulfur.
SMILES,MT1-MMP act inh,MT1-MMP act inh RFP,eIF4H FP inh,UUG fidelity,HIV Env fusion,CSC inhib,Rce1 inhib,PABP FP inh,others
Cc1cc(NS(=O)(=O)c2ccc(NC(=O)c3ccccc3F)cc2)no1,3,0,nt,-14,nt,-9,nt,nt,
Cc1ccc(S(=O)(=O)N2CCCC2C(=O)NCc2ccncc2)cc1 (configuration not stated),2,2,-11,-9,1,-4,i,-4,

# Back to the main list with the 3 entries that preceded the break.
SMILES,MT1-MMP act inh,MT1-MMP act inh RFP,eIF4H FP inh,UUG fidelity,HIV Env fusion,CSC inhib,Rce1 inhib,PABP FP inh,others
CC(C)C(=O)Nc1c(-c2ccc(Cl)cc2)c(=O)c2ccccc2n1C,2,0,-4,-11,-4,-17,i,-6,
COc1ccc(C(CNC(=O)c2ccco2)N2CCCCC2)cc1 (configuration not stated),1,5,-3,nt,10,-1,i,17,
O=C(NC(c1ccccc1)C(Cl)(Cl)Cl)c1ccccc1 (configuration not stated),1,-7,-5,-3,nt,3,i,-2,
Cc1sc2ncn(CC(=O)N3CCOCC3)c(=O)c2c1-c1ccccc1,nt,nt,4,-13,-8,9,i,-1,
CSc1nc(Cl)cc(=O)[nH]1,-5,0,7,-10,-19,7,i,0,
Cc1nc2c(ncn2-c2ccccc2)c(=O)n1NC(=O)CN1CCOCC1,-2,-4,-6,nt,15,nt,i,-10,
COC(=O)c1c[nH]n2c(=O)c(Cl)c(C)nc12,-3,0,-1,nt,nt,12,i,-6,
CO/N=C/c1ccc(Oc2ccc(C)cc2)nc1,0,0,-6,-8,nt,nt,i,-4,
COc1ccc(/C=C/C(=O)c2nc3ccccc3n2CC(=O)c2ccc(OC)cc2)cc1,-2,0,-3,-17,-137,28,i,-4,
CC(C)CCNC(=O)C12CN(Cc3ccccc3)CC1C(c1cccc([N+](=O)[O-])c1)=NO2 (configuration not stated),-1,-2,-2,-18,16,-5,i,8,
COCCN(C(=O)c1cccc(OC)c1)c1nnc(-c2ccncc2)s1,8,-4,-4,-3,nt,3,i,11,
Cc1ccc(S(=O)(=O)N2CCN(Cc3ccccc3)CC2)c(C)c1N(C)S(=O)(=O)c1ccccc1,-5,-8,0,nt,35,37,i,1,
O=c1[nH]c2c(s1)C(c1ccco1)C1C3CCC(C3)C1S2 (configuration not stated),-14,5,2,0,nt,-7,i,45,
N#Cc1cn(CC(=O)N2CCCc3ccccc32)c2ccccc12,-3,-2,2,-12,nt,0,i,-10,
CN(C)c1ccc(-c2ccnc3c2CC(C)(C(=O)NCc2cccc(Cl)c2)O3)cc1 (configuration not stated),-3,-5,nt,-26,23,nt,nt,nt,
Cc1ccc(C(=O)NNC(=O)c2ccccc2OCc2c(C)noc2C)cc1,2,1,nt,-12,0,nt,nt,nt,
N#Cc1ccccc1N/C=C/C(=O)c1ccc(Cl)cc1,1,-2,nt,-43,-361,13,i,nt,
CCNc1nc(OC)nc(Oc2ccc(C(=O)OC)cc2)n1,4,2,-5,-5,-439,-20,i,-9,
CCCCN1C(=O)C(=O)N(CC(=O)N2N=C3/C(=C/c4ccco4)CCCC3C2c2ccco2)C1=O (configuration not stated),-2,-7,19,nt,-12,-18,i,-6,
CCOc1ccccc1C(=O)Nc1nnc(Cc2ccc(OC)c(OC)c2)s1,3,-5,6,10,12,-14,i,-3,
CCCCOc1ccc(/C=N/NC(=O)c2nnn(-c3nonc3N)c2C)cc1,-2,3,nt,-10,-5,0,i,nt,
CN1CCN(C(=O)C2CCN(c3ncnc4c3nc3n4CCCCC3)CC2)CC1,1,0,23,-8,-2,-13,i,-6,
COc1ccc(CN2C(=O)c3cccnc3C2=O)cc1S(=O)(=O)NCc1ccc(C)o1,-3,1,5,7,-2,0,i,6,
Cc1cc(OCC(O)CN(C)C(=O)C(C)Oc2ccccc2)ccc1Cl (configuration not stated),1,-4,12,6,4,-8,i,0,
Cc1sc2ncnc(N3CCN(S(=O)(=O)c4ccc(Br)cc4)CC3)c2c1C,-14,-26,1,-5,78*,-9,i,-2,
Cc1ccc(NC(=O)CCNC(=O)Cn2ccc3ccccc3c2=O)cc1F,2,1,0,-22,4,nt,i,5,
CSc1nc(N)nc(SCCS(=O)(=O)c2ccc(Cl)cc2)c1C#N,3,-2,-6,-5,nt,26,i,-5,
CC(=O)NC(NC(=S)Nc1ccc(C)cc1C)C(Cl)(Cl)Cl (configuration not stated),-4,0,-2,-24,6,-5,i,-4,
O=C(Nc1ccccc1C(=O)Nc1ccc(Cl)cc1)c1cccnc1,-2,-1,-13,-6,2,-4,i,-4,
COc1cccc(CC(=O)Nc2cc(S(=O)(=O)N3CCOCC3)ccc2N2CCOCC2)c1,-1,2,1,3,1,-10,i,-14,
O=C(Nc1ccccn1)c1cc(-n2cnnc2)ccc1Cl,-1,1,6,-7,nt,1,i,0,
O=C(CSc1ccc2nnc(-c3ccccc3)n2n1)NCc1ccco1,3,-1,-6,-12,-30,6,i,-8,
O=C(O)c1ccc(Cn2ccc3ccccc32)o1,-5,2,-2,-13,4,-16,i,21,
CNC(=O)c1ccsc1NC(=O)c1ccc2c(c1)CCCC2,-3,-2,-4,-22,-128,70,i,-1,
Cc1ccc(NC(=O)CN(C)C(=O)COc2cc(F)ccc2[N+](=O)[O-])cc1,0,4,0,-14,0,-17,i,-7,
CCCNC(=O)N1CCN(S(C)(=O)=O)CC1,2,3,-6,nt,25,-10,i,-9,
O=C(CCN1C(=O)/C(=C\c2cccc(Br)c2)SC1=S)NCCCN1CCOCC1,1,-1,-11,7,-1,nt,i,0,
CCN(CC)c1ccc(/C=N/NC(=O)c2ccco2)c(O)c1,7,-8,-5,nt,-408,113*,i,-2,
COc1ccc(C(=O)O)cc1S(=O)(=O)NC1CCN(Cc2ccccc2)CC1,1,3,nt,-19,23,-16,nt,nt,
O=C1Nc2ccccc2N2CCCC12 (configuration not stated),nt,nt,-4,nt,nt,-13,i,1,
O=C(O)c1ccc(/C=N/NC(=O)c2cc3ccccc3cc2O)cc1,1,4,nt,-5,nt,-10,nt,nt,
CCc1ccc(C(=O)NC(CCSC)C(=O)O)cc1 (configuration not stated),-2,3,2,nt,6,-6,i,2,
COc1ccc(-c2ocnc2C(=O)N2CCN(Cc3cccnc3)CC2)cc1,0,3,5,nt,12,-4,i,9,
O=C(N/N=C/c1cc(Br)c(O)c(Br)c1)c1cccc(C(F)(F)F)c1,2,7,12,nt,-29,-12,i,2,
C=CCn1c(C)nnc1SCC(=O)N1CCN(S(=O)(=O)c2ccccc2)CC1,5,7,-3,-7,-9,-17,i,3,
COc1ccc(-c2cc(C(F)(F)F)n3ncc(C(=O)N(C)Cc4ccccc4)c3n2)cc1,-2,-9,-13,nt,-10,-9,i,2,
COc1ccc(CCNC(=O)CCS(=O)(=O)c2ccc3c(c2)oc(=O)n3C)cc1OC,2,5,-3,-11,-6,-6,i,-2,
CC(C)(C)NC(=O)CN(CCc1ccccc1)C(=O)c1csnn1,-4,0,-2,nt,7,-6,i,-2,
CC1(C(=O)Nc2cccc(OC(F)(F)F)c2)Cc2c(-c3cccc(C(F)(F)F)c3)ccnc2O1 (configuration not stated),-6,2,nt,-13,8,nt,nt,nt,
CC(=O)Nc1ccc(SCC(=O)c2cc(C)n(CC(F)(F)F)c2C)cc1,2,-3,-3,-20,nt,-1,i,9,
Cc1cc(C(F)(F)F)nc(NNc2nc(C)cc(C(F)(F)F)n2)n1,3,-1,nt,-31,15,nt,nt,nt,
O=C(O)C1CC=CCC1C(=O)Nc1ccc(S(=O)(=O)N2CCCc3ccccc32)cc1 (configuration not stated),-2,6,2,5,-16,-17,i,5,
O=C1CC2(CCN(C(=O)c3cccc(Cl)c3)CC2)Oc2ccccc21,-1,-1,nt,7,7,2,i,nt,

# (further entries)
SMILES,MT1-MMP act inh,MT1-MMP act inh RFP,eIF4H FP inh,UUG fidelity,HIV Env fusion,CSC inhib,Rce1 inhib,PABP FP inh,others
O=C(Nc1ccc(Cl)c(Cl)c1)c1ccncc1,-2,-4,1,-5,-315,7,i,6,
Cc1cc(C)nc(S/C=C/C(=O)c2ccccc2F)n1,9,3,2,nt,-144,61,i,-1,
N#Cc1c(NC(=O)CSc2nnnn2C2CCCC2)sc2c1CCCC2,-2,-8,6,-9,14,-8,i,4,
COc1ccc(CCNS(=O)(=O)c2ccccc2[N+](=O)[O-])cc1OC,0,2,-8,-9,-7,-14,i,2,
Clc1cccc2c1CCN(Cc1nc(-c3cnccn3)no1)C2,-1,1,11,nt,-14,-5,i,10,
C=CCN(C(=O)CSc1nc2c(sc3ccccc32)c(=O)n1CCN(CC)CC)c1ccccc1,-1,-5,5,8,-3,nt,i,3,
O=C(CC1(O)C(=O)N(Cc2ccccc2)c2ccccc21)c1ccncc1 (configuration not stated),-1,5,-4,nt,nt,11,i,0,
CN(C)S(=O)(=O)c1ccc2c(c1)nc(CCC(=O)NCCc1ccc(Cl)cc1)n2C,1,-3,-9,-11,-16,-11,i,7,
O=c1c2c([nH]c3ccccc13)CCCC2,2,-2,2,-13,nt,-6,i,6,
O=C(CNC(=O)c1cccc(F)c1)N/N=C/c1cccs1,-3,-1,19,2,-3,8,i,14,
O=C1c2cccc(OCc3ccc(F)cc3)c2CCN1Cc1ccccc1,-7,-18,2,-18,77*,31,i,-4,
CCCCOP(=O)(OCCCC)C(Nc1ccc(C(=O)OCC)cc1)c1ccncc1 (configuration not stated),-32,-26,-15,-11,-1,4,i,4,
CC(C)CNC(=O)c1cccc(NC(=O)CSc2ccc(Cl)cc2)c1,-1,-1,-5,nt,6,2,i,-13,
c1ccc(COc2ncnc3c2ncn3CCCNCC2CCCO2)cc1 (configuration not stated),1,-1,nt,-21,-62,nt,nt,nt,
COc1cnc(-c2ccccn2)nc1N(C)C,0,0,16,nt,-5,45,i,-3,
CCCCc1noc2c1/C(=N\O)CC(c1ccccc1)C2 (configuration not stated),-1,-5,1,-22,nt,1,i,8,
COc1ccc(C(=O)Nc2ccc(C(=O)Nc3cccnc3)cc2)cc1,2,3,-13,-19,-1,-6,i,-17,
COc1cccc(CN(C)C(=O)c2ccc3nccnc3c2)c1,-9,-1,88*,10,nt,-2,i,90*,
O=S(=O)(/N=C(/Nc1ccccc1)c1ccccc1)c1cccs1,-7,-4,-5,nt,-9,nt,i,2,
N#Cc1nc(Cc2cccc3ccccc23)oc1NCCCN1CCOCC1,7,4,-8,2,nt,-8,i,2,
